Source: PubChem (several laboratories)
Ecoli rRNA inh – selective bacterial rRNA inhibition in E. coli; E. coli WT GFP vs humanized-ribosome RFP mutants, fluorescence, 24 h; active compounds read low; DMSO median 0, no signal -100; GFP signal change (wild-type ribosome), % (no concentration beside the values); 350,000 tested, 1.6% active; AID 720706;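 active = significant combined selectivity score with lowered wild-type GFP, culture density cut under 30%, mutant RFP and density less affected; inactive = any of these conditions unmet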; note: one replicate is shown; some compounds called inactive have numbers as strong as hits
FGF22 binding – FGF22 (human) thermal shift binding; 340,000 tested, 1.5% active; calls only at 9.99 µM; recombinant FGF22 thermal shift, SYPRO orange fluorescence; percent of sucrose octasulfate shift, DMSO zero; Q9HCT0;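 active = melting point raised past a set limit in the mean and every replicate; inconclusive = no clear call; three in four hits are not shown here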
Target sequence (Q9HCT0 whole entry, looked up): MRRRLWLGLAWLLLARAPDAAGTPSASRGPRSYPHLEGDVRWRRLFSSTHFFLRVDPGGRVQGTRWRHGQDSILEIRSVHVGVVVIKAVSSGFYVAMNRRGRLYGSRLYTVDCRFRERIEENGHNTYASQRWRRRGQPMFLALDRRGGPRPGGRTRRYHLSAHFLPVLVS
Vif TR-FRET – HIV-1 Vif–A3G interaction blockers – biochemical, TR-FRET, GST-Vif 1-94, biotin-A3G peptide, dose response retest, primary screen (AID 1117319) | TR-FRET GST-Vif / biotin-A3G peptide binding; higher % means a stronger effect; test concentration not given here; strong numbers were not always called active | 260,000 tested, 0.57% active | one-dose inhibition, %; IC50 in µM for titrated hits;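 active = above the screen mean plus three standard deviations and confirmed in dose response; inconclusive = results disagree or hit not tested in dose response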;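 note: Vif residues 1-94 fused to GST binding biotinylated APOBEC3G peptide 110-148; 0% = full assay without inhibitor and 100% = GST in place of GST-Vif; retest series ran down from 100 µM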
AF4-AF9 inh – blocks AF4 peptide binding to human AF9; P42568; AlphaScreen, biotin-AF4 peptide binding to FLAG-AF9; inhibition, % at 10 µM; 350,000 tested, 0.47% active;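 active = every replicate reaching a set inhibition limit, whatever the replicate mean, cut at about 25% in these data; inconclusive = mean inhibition reaches that limit but some replicates miss it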;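 note: 0% = plate neutral control median and 100% = total signal loss; the record names both 10 and 1 µM as test concentration; the first replicate is given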
HNF4A DNA FP – change in binding of human HNF4 alpha to DNA. P41235. HNF4a-FITC DNA binding, fluorescence polarization, 1 h. activity change, % at 10 µM. 360,000 tested, 0.3% active. AID 1224865; in the data active = activity change above about 30%, passing the limit was not always enough;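 note: controls were the assay level and a saturating level of protein; the project sought stronger binding though the title names inhibitors; some compounds called inactive have numbers as strong as hits; positive values seem to mean higher polarization but the record does not say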
Target sequence (P41235 whole entry, looked up): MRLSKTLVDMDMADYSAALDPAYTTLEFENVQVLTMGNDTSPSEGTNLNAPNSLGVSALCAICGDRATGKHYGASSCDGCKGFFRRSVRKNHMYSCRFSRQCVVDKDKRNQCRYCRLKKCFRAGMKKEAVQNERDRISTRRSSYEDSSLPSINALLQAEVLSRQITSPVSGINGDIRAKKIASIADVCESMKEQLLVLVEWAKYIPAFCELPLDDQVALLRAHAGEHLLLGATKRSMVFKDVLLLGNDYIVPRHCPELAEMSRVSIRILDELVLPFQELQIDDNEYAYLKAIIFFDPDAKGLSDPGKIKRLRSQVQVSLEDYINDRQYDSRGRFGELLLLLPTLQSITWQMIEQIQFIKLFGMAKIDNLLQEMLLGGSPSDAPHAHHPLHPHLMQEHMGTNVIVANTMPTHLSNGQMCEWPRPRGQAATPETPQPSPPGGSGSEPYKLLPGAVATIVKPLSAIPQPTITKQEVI
ALR H2O2 inh – blocks human ALR sulfhydryl oxidase activity; P55789; purified ALR, DTT oxidation, H2O2 HRP-luminol luminescence; inhibition, % (concentration not given with the values); 290,000 tested, 3.8% active;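 active = mean and each replicate at 75% or more; inconclusive = only one of the two met; inactive = neither met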;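 note: stock transfer was 7.5 nL into about 7.5 µL; 0% = neutral wells and 100% = wells with inactivated enzyme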
Target sequence (P55789 whole entry, looked up): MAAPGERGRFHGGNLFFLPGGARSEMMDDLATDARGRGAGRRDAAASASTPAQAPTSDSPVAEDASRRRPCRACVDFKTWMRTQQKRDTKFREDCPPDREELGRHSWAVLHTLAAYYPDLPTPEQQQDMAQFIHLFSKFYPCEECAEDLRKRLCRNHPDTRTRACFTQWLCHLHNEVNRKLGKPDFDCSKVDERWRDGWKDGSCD
Ecoli growth – blocks Escherichia coli growth | AID 1053175 | OD600 absorbance (concentration not given with the values) | 330,000 tested, 0.21% active | OD600, 23 h; active compounds read low;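 active = OD600 absorbance below the run mean of sample wells minus 3.6 SD, in any replicate, cut at about 0.56 in these data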;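 note: stock transfer was 300 nL into about 60 µL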
Ecoli rRNA inh OD600 – further read-out of Ecoli rRNA inh, marked with its call; OD600 change, %; measured here: OD600 growth;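 optical density of the mix in the first replicate; 0 = DMSO median and -100 = no signal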
Ecoli rRNA inh RFP – recorded beside Ecoli rRNA inh, whose call it bears; RFP signal change, %; measured here: RFP humanized mutant strains;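 first replicate; 0 = DMSO median and -100 = no signal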
* marks the source's active call; other numbers are inactive results; i = inactive; ? = inconclusive; nt = no result given; & = joins results of further samples. The list is partial (hit frequency here may not be typical).

SMILES	Ecoli rRNA inh	Ecoli rRNA inh OD600	Ecoli rRNA inh RFP	FGF22 binding	Vif TR-FRET	AF4-AF9 inh	HNF4A DNA FP	ALR H2O2 inh	Ecoli growth
COc1ccccc1S(=O)(=O)N[C@H]1CC[C@H](CCNC(=O)C2CCCCC2)O[C@H]1CO	1	0	-0.4	i	nt	0.3	nt	nt	nt
Cc1cc(OCc2nnc(SC(C)C(=O)O)n2Cc2ccccc2)ccc1Cl (stereo not drawn)	-31	-46	-5.8	i	11%	-2.0	5.5	nt	0.67
COc1ccc2c(c1)CCc1cn3nc(C)cc3nc1-2	-23	-33	6.7	nt	2%	-43	-3.0	-14	0.69
O=C(COc1ccc(Cl)cc1)Nc1ccccc1C(=O)NCc1ccco1	-2	-6	-12	i	29%	-23	-1.6	-2	0.69
CC(=O)N1CCN(C(=O)c2cc(S(=O)(=O)N(C)c3ccc(F)cc3)ccc2Cl)CC1	6	7	-0.9	nt	7%	-0.6	1.4	-2	0.66
C=CCn1c2ccccc2c2nnc(SCc3[nH]c(=O)[nH]c3C(=O)CCCCC(=O)OCC)nc21	-1	4	-3.0	i	1%	3.1	3.1	15	0.65
O=C(NCCc1ccncc1)Nc1ccc(F)cc1	2	4	14	i	4%	-23	-0.6	-5	0.7
Cc1ccc(NC(=O)COC(=O)Cn2cnc3c2c(=O)n(C)c(=O)n3C)c(Cl)c1	14	20	-3.2	i	5%	-3.1	2.3	-1	0.69
CCOc1ccc(C(=O)NCC(=O)NNC(=O)c2cc(C)oc2C)cc1OCC	14	22	3.7	i	nt	-11	0.2	5	0.7
Cc1nc2nc(SCC(=O)NCc3ccco3)nn2c(C)c1Cc1c(F)cccc1Cl	nt	nt	nt	nt	13%	nt	0.7	7	0.71
C[C@H](CO)N1C[C@H](C)[C@H](CN(C)S(=O)(=O)c2ccccc2)Oc2c(NC(=O)c3nc4ccccc4s3)cccc2C1=O	-3	1	2.6	i	nt	-4.7	nt	nt	nt
COc1ccc(C(=O)NC2CCSc3ccccc32)cc1S(=O)(=O)N1CCOCC1 (stereo not drawn)	0	-2	1.4	i	-10%	-19	-0.5	0	0.65

Some of the entries so far, as labelled records:
molecule: C[C@H](CO)N1C[C@H](C)[C@H](CN(C)S(=O)(=O)c2ccccc2)Oc2c(NC(=O)c3nc4ccccc4s3)cccc2C1=O
  Ecoli rRNA inh = -3
  Ecoli rRNA inh OD600 = 1
  Ecoli rRNA inh RFP = 2.6
  FGF22 binding = i
  Vif TR-FRET = nt
  AF4-AF9 inh = -4.7
  HNF4A DNA FP = nt
  ALR H2O2 inh = nt
  Ecoli growth = nt

molecule: COc1ccc(C(=O)NC2CCSc3ccccc32)cc1S(=O)(=O)N1CCOCC1 (stereo not drawn)
  Ecoli rRNA inh = 0
  Ecoli rRNA inh OD600 = -2
  Ecoli rRNA inh RFP = 1.4
  FGF22 binding = i
  Vif TR-FRET = -10%
  AF4-AF9 inh = -19
  HNF4A DNA FP = -0.5
  ALR H2O2 inh = 0
  Ecoli growth = 0.65

(continued)
SMILES	Ecoli rRNA inh	Ecoli rRNA inh OD600	Ecoli rRNA inh RFP	FGF22 binding	Vif TR-FRET	AF4-AF9 inh	HNF4A DNA FP	ALR H2O2 inh	Ecoli growth
CCc1cc2c(=O)n(CCC(C)C)c(=S)[nH]c2s1	1	4	-0.7	i	-2%	-6.0	3.2	1	0.71
O=[N+]([O-])c1ccc(C(=S)N2CCN(c3ccc(F)cc3)CC2)cc1	-1	2	1.9	nt	nt	10	1.6	-2	0.69
CCCn1c(SCC(=O)Nc2nc3c(s2)CCCC3)nc2c1c(=O)n(C)c(=O)n2C	nt	nt	nt	nt	-1%	nt	5.1	-10	0.78
CCOC(=O)C1CCN(CC(=O)Nc2c(C(=O)OC)[nH]c3cccc(Cl)c23)CC1	nt	nt	nt	nt	-4%	nt	1.9	-15	0.66
CCCCC1=CC2=CC(=O)C(C)(OC(=O)CC)C(=O)C2=CN1CCCOC(C)C (stereo not drawn)	nt	nt	nt	nt	32%	nt	-2.6	-15	nt
CS(=O)(=O)N1CCCC(C(=O)Nc2ccc(F)cc2F)C1 (stereo not drawn)	28	23	3.8	i	?	0.6	-4.3	10	0.7
CCCN(CC(=O)Nc1ccccc1C)C(=O)c1ccc(C)c(S(=O)(=O)N2CCCCC2)c1	-2	-8	-1.8	i	-7%	-49	2.2	-9	0.69
CCc1c(C)nc2ncnn2c1NCCc1ccc(OC)cc1	-27*	-18*	-9.5*	i	-1%	-1.0	-0.6	-6	0.7
CCN(CC)C(=O)c1cnn(-c2ccccc2)c1NC(=O)c1ccco1	-5	0	-0.8	i	2%	2.0	-1.4	9	0.66
O=C(Cc1cccs1)N1CCN=C1SCc1ccccc1F	11	15	2.1	i	6%	-0.2	-5.5	99*	0.72
C[C@@H]1CCCCO[C@H](CN(C)S(C)(=O)=O)[C@@H](C)CN([C@@H](C)CO)C(=O)c2cc(NC(=O)Nc3ccccc3)ccc2O1	0	0	0.7	i	nt	2.4	nt	nt	nt
C[C@@H]1CCCCO[C@H](CN(C)S(=O)(=O)c2ccccc2)[C@@H](C)CN([C@H](C)CO)C(=O)c2cc(NC(=O)NC3CCCCC3)ccc2O1	2	1	-0.7	i	nt	-5.0	nt	nt	nt
C[C@@H]1CN([C@H](C)CO)C(=O)c2cc(C#CC3(O)CCCC3)cnc2O[C@H]1CN(C)C(=O)Cc1ccccc1	-1	4	-2.0	i	nt	-3.7	nt	nt	nt
Cc1cc(C)n(-c2ccc(S(=O)(=O)N3CCOCC3)cc2[N+](=O)[O-])n1	5	3	-1.1	i	nt	11	-6.3	-11	0.75
Cc1ccc(S(=O)(=O)Nc2c(C)nc3nc(C)[nH]n3c2=O)cc1	5	10	-0.2	i	nt	-1.2	-2.8	nt	0.68
COc1ccc(C(C(=O)NC2CCCCC2)N(C(=O)c2cccs2)c2ccc3c(c2)OCO3)cc1 (stereo not drawn)	nt	nt	nt	nt	?	nt	-1.3	-2	0.7
NC1=NC[C@@H](Cc2ccc(O)cc2)N1CCc1cccc(F)c1	5	-1	-8.2	i	-1%	1.9	2.1	nt	nt
Cc1ccc(C(C)C)c(OCCCCCN2CCOCC2)c1	0	0	0.5	i	-2%	3.6	2.8	-4	0.65
COc1ccc(NC(=O)C(NC(=O)c2ccccc2)C(C)C)cc1 (stereo not drawn)	nt	nt	nt	nt	2%	nt	-0.2	2	0.7
O=C(c1ccc2c(=O)n(C3CCCC3)c(=S)[nH]c2c1)N1CCN(C2CCCCC2)CC1	nt	nt	nt	nt	-7%	nt	-2.0	nt	0.67
OC1CCN(c2cc(-c3ccccc3)nc3cc(-c4ccc(F)cc4)nn23)CC1	-9	-2	-3.6	i	-11%	0.3	-4.8	nt	0.7
O=C(/C=C/c1cccc(C(F)(F)F)c1)NNC(=O)c1ccncc1	3	10	-1.3	i	1%	-4.1	3.5	nt	0.7
Cc1ccc(P(=O)(c2ccc(C)cc2)[C@@H](NC(c2ccccc2)c2ccccc2)c2ccccc2)cc1	20	8	-0.6	i	nt	-0.5	-2.9	nt	nt
Cc1ccnc(SC2CC(=O)N(c3ccc(Cl)cc3)C2=O)n1 (stereo not drawn)	-4	0	-1.1	i	nt	1.1	4.7	-1	0.62
COc1ccc(NC(=O)N(C)C[C@@H]2Oc3ncc(C#CCN(C)C)cc3C(=O)N([C@H](C)CO)C[C@@H]2C)cc1	6	9	-1.5	i	nt	-1.4&-2.2	nt	nt	nt
CC(=O)OC(C(=O)NC1CCCCC1)c1ccccc1 (stereo not drawn)	nt	nt	nt	nt	-6%	nt	1.7	-3	0.72
COc1ccc(NC(=O)Nc2ccc3c(c2)C(=O)N([C@@H](C)CO)C[C@@H](C)[C@@H](CN(C)C(=O)c2ccccc2)OCCCC[C@H](C)O3)cc1	3	8	3.4	i	nt	0.0	nt	nt	nt
O=C(OCC(=O)c1c[nH]c2ccccc12)c1cccc(S(=O)(=O)N2CCCCCC2)c1	-11	-5	-5.6	i	nt	-0.9	1.7	-19	0.65
C[C@H](CO)N1C[C@H](C)[C@H](CN(C)S(=O)(=O)c2ccc(F)cc2)Oc2ccc(NS(=O)(=O)c3ccc(Cl)cc3)cc2C1=O	-2	-17	2.8	i	nt	1.2	nt	nt	nt
C[C@H]1CN([C@@H](C)CO)C(=O)c2cc(NC(=O)Nc3ccccc3)ccc2O[C@H]1CN(C)C(=O)Nc1ccc(F)cc1	-3	8	1.4	i	nt	0.1	nt	nt	nt
Cc1ccc(N2CCN(C(=O)C(=O)c3cccc(Br)c3)CC2)cc1	10	-4	4.3	i	nt	0.9	7.6	nt	nt
Cc1ccc(C)c(N2CCN(c3ncnc4c3cnn4-c3ccccc3)CC2)c1	8	4	4.3	i	7%	0.1	-1.9	nt	nt
O=[N+]([O-])c1cccc(CSc2cccc[n+]2[O-])c1	6	0	-5.0	i	-5%	-0.4	0.4	-7	0.63
O=c1/c(=C/c2ccc(O)c([N+](=O)[O-])c2)sc2nc3ccccc3n12	13	10	-0.6	i	nt	-4.0	-3.1	nt	nt
O=C(N/C(=C/c1cccs1)C(=O)N1CCCCCC1)c1ccccc1	nt	nt	nt	nt	-5%	nt	0.8	nt	0.67
CCOc1ccc(N2CC(C(=O)N3CCN(c4ccccn4)CC3)CC2=O)cc1 (stereo not drawn)	0	0	1.0	i	5%	2.3	-4.6	-1	0.63
C[C@@H]1CN([C@@H](C)CO)C(=O)c2cc(C3=CCCCC3)cnc2O[C@@H]1CN(C)C(=O)NC1CCCC1	6	10	1.9	i	nt	-0.4	nt	nt	nt
COC(=O)C(CO)Nc1ncnc2onc(-c3ccc(F)cc3)c12 (stereo not drawn)	-4	3	9.1	i	10%	-1.4	-3.7	-5	0.69
Cn1nnc2cc(C(=O)N3CCN(c4ccccn4)CC3)ccc21	5	14	-0.2	i	nt	-2.2	0.9	-2	0.64
Cc1cc(C)n2nc(SCCOc3ccc(F)cc3)nc2n1	-16	-17	-2.4	i	-5%	-0.9	0.0	-10	0.66
CC(C)(Oc1ccc(Cl)cc1)C(=O)NC1=NN(c2ccccc2)C(=O)C1	nt	nt	nt	nt	nt	nt	0.2	30	0.73
C[C@H]1CN([C@@H](C)CO)C(=O)c2cccc(NC(=O)c3nc4ccccc4s3)c2O[C@@H]1CN(C)Cc1ccc(Cl)c(Cl)c1	2	3	1.6	i	nt	2.5	nt	nt	nt
Cc1ccsc1C(=O)OCC(=O)Nc1cccc(S(=O)(=O)N2CCCCC2)c1	-8	-28	-8.6	i	-3%	3.0	-0.4	nt	nt
CCN(C(=O)c1ccco1)c1nnc(-c2ccc(OC)cc2)s1	nt	nt	nt	nt	-26%	nt	-1.4	-4	0.74
CN(C(=O)CCl)C1CCCc2ccccc21 (stereo not drawn)	16	10	3.5	i	nt	0.5	-5.2	nt	0.67
CCC(c1nnnn1CC1CCCO1)N(CCCO)Cc1cc2cccc(C)c2[nH]c1=O (stereo not drawn)	-3	-12	-4.0	nt	0%	nt	-3.7	38	0.7
CCOC(=O)N1CCN(S(=O)(=O)c2cccc3cccnc23)CC1	nt	nt	nt	nt	4%	nt	21	-2	0.68

Part of the list above, reduced to Ecoli rRNA inh, Ecoli growth and Vif TR-FRET:
Molecule,Ecoli rRNA inh,Ecoli growth,Vif TR-FRET
CCC(c1nnnn1CC1CCCO1)N(CCCO)Cc1cc2cccc(C)c2[nH]c1=O (stereo not drawn),-3,0.7,0%
Cc1cc(C)n2nc(SCCOc3ccc(F)cc3)nc2n1,-16,0.66,-5%
